VACV Venus inh: inhibitors of vaccinia virus (Venus reporter). AID 720580. Vaccinia virus Venus reporter expression, fluorescence. Potency, µM (series often up to 36.5 µM), inactives show top-dose activity change, negative = inhibition, most hits filed as inhibitors. 330,000 compounds, 0.46% hits; active means well fitted inhibition curve with a large enough effect; inconclusive means small, poorly fitted or top-dose-only effect; inactive means no such curve, though single readings can be large or run the other way; tested in A549 cells; note: nearly all actives have a fitted effect of over 30% in size; inactives centre near -10
Vaccinia mCherry: vaccinia inhibition (mCherry reporter); Vaccinia virus mCherry reporter infection, fluorescence; about a quarter of the inactives have no number; Potency, µM (top dose mostly 36.5 µM), without a hit: top-dose activity change, negative = inhibition, actives largely listed as inhibitors; 310,000 compounds, 0.63% hits; AID 720579; active = well fitted inhibition curve with a large enough effect; inconclusive = small, poorly fitted or top-dose-only effect; inactive = no such curve, though single readings can be large or run the other way; tested in A549 cells; note: nearly all actives have a fitted effect of over 35% in size; inactives centre near -10
* = called active by the depositor; i = inactive; ? = inconclusive; nt = no result given; & = joins results of further samples; [ ] = remark or other dose. % is set by controls: 0 for no effect and ±100 for the full control effect; potency is the fitted concentration of half-maximal effect.

Each structure is followed by: VACV Venus inh, Vaccinia mCherry
C[C@@H](CO)NC(=O)c1[nH]cnc1C(=O)Nc1cccc(Cl)c1
  -30%, -15%
O=c1[nH]nnc2c1cnn2-c1ccccc1
  -9%, i
Cc1nc2ccccn2c1C(=O)NCc1cccnc1
  -5%, -12%
CCc1cc2c(COC(=O)CCNS(=O)(=O)c3cccc(C(F)(F)F)c3)cc(=O)oc2cc1O
  -18%, i
Cc1c(C=NCCOCc2ccccc2)cnn1C
  -4%, i
O=C(c1ccccc1)c1ccc2cc(O)ccc2c1
  ?, -11%
CCc1ccccc1NC(=O)CN1C(=O)COc2ccc(S(=O)(=O)Nc3ccccc3)cc21
  -12%, -15%
O=C1CSC(c2cn(-c3ccccc3)nc2-c2ccc3c(c2)OCCO3)N1CCN1CCOCC1 (stereo not drawn)
  -15%, nt
COC(=O)c1c(C(=O)OC)c(-c2ccc(F)cc2)n2c1CS(=O)(=O)C2
  -11%, -10%
CC(C)C(OC(=O)c1nsc(Cl)c1Cl)C(=O)NC1CCCCC1 (stereo not drawn)
  -5%, 0%
CCOC(=O)c1[nH]c2ccc(OC)cc2c1NC(=S)N1CCN(c2ccc(F)cc2)CC1
  -16%, -11%
COc1ccc(Oc2c(OC)cc([N+](=O)[O-])c3ncccc23)cc1
  -10%, ?
CCOCCc1nnc(NC(=O)C2CCN(C(=O)c3ccco3)CC2)s1
  -2%, -8%
COc1ccc(N(CC(=O)NCC2CCCO2)C(=O)CCC(=O)Nc2nccs2)c(OC)c1 (stereo not drawn)
  -12%, i
O=C1CCNc2cc3ccccc3cc21
  ?, 22µM*
O=C(O)c1cccc2c1C(=O)c1cccc3snc-2c13
  -7%, -7%
Cc1ccc(-n2ncc(C(=O)NCCN3CCN(C)CC3)c2C2CCN(C(=O)OC(C)(C)C)CC2)cc1
  -13%, -17%
CN1C(=O)C(C)(C)c2cc(S(=O)(=O)N3CCC(C(=O)NCc4ccccc4Cl)CC3)ccc21
  -26%, i
CC(n1cc(C[C@H](N)C(=O)O)c2ccccc21)n1cc(C[C@H](N)C(=O)O)c2ccccc21
  -12%, -14%
NCCCCC(=O)O
  -17%&0%, -25%&-4%
CCn1c(-c2ccco2)nc2ccccc21
  -7%, -14%
Cc1cccc(N2CCN(C(=O)CSc3ccsc3[N+](=O)[O-])CC2C)c1 (stereo not drawn)
  -11%, i
O=C(N/N=C/c1c[nH]c2ccccc12)C1COc2ccccc2O1 (stereo not drawn)
  ?, -20%
O=C(CN1C(=O)C2(SCC(=O)N2c2cccc(F)c2)c2ccccc21)NCc1ccccc1Cl (stereo not drawn)
  -11%, -16%
Cc1nc2ccccn2c1C(=O)N/N=C/c1ccc2c(c1)OCO2
  -15%, -11%
Clc1cccc(OCc2nnc(-c3ccccc3Br)o2)c1
  -1%, -10%
CCN(CC)C(=O)c1ccc(NC(=O)CN2CCc3cc(OC)c(OC)cc3C2)cc1
  -17%, i
CCCCOCCCNC(=O)c1ccc2c(c1)OCO2
  -8%, -1%
COc1cccc(CN2CCNC(=O)C2CC(=O)N(C)C2CCCCC2)c1OC (stereo not drawn)
  -15%, -15%
CCOC(=O)[C@H]1[C@H]2COc3cc(OC)ccc3[C@@H]2N2C(=O)N(c3cccc(F)c3)C(=O)[C@@]12C
  -19%, i

2 entries picked at random from the list so far:
Each structure is followed by: VACV Venus inh, Vaccinia mCherry
O=C(O)c1cccc2c1C(=O)c1cccc3snc-2c13
  -7%, -7%
CCN(CC)C(=O)c1ccc(NC(=O)CN2CCc3cc(OC)c(OC)cc3C2)cc1
  -17%, i

Back to the main list; the three compounds before the break are reprinted first.
Each structure is followed by: VACV Venus inh, Vaccinia mCherry
CCCCOCCCNC(=O)c1ccc2c(c1)OCO2
  -8%, -1%
COc1cccc(CN2CCNC(=O)C2CC(=O)N(C)C2CCCCC2)c1OC (stereo not drawn)
  -15%, -15%
CCOC(=O)[C@H]1[C@H]2COc3cc(OC)ccc3[C@@H]2N2C(=O)N(c3cccc(F)c3)C(=O)[C@@]12C
  -19%, i
Cc1cc(NC(=O)c2ccccc2F)on1
  -15%, i
CCCCC(=O)Nc1ccc(NC(=O)c2ccco2)cn1
  -3%, -16%
CN(C(=O)COC(=O)c1ccc2c(c1)OCCO2)c1ccccc1
  -13%, -10%
Cc1cc(C)c(NC(=O)Cn2cnc3c(oc4ccccc43)c2=O)c(C)c1
  -2%&0%, -1%
COc1cccc(NC(=O)COC(=O)Cc2ccc(Cl)cc2)c1
  -1%, i
CN(C)S(=O)(=O)c1ccc(NC(=O)CSc2nnc(-c3ccco3)n2N)cc1
  0%, i
O=C(NC1CCCC1)c1ccc2c(c1)N(Cc1ccccc1Cl)C(=O)c1ccccc1S2
  -7%, -2%
Brc1ccc(-c2csc(N/N=C/c3cccnc3)n2)cc1
  -1%, -21%
Cc1nc(SCC(=O)Nc2cc(C)on2)c2c(=O)n(C)c(=O)n(C)c2n1
  -1%, i
CC[C@@H]1C=C(C(=O)O)[C@H](c2ccc(Cl)c(Cl)c2)N1S(=O)(=O)c1ccc(C)cc1
  -5%, 2%
CC(C)C(NC(=O)OCc1ccccc1)C(=O)OCC(=O)NCc1ccco1 (stereo not drawn)
  -13%, nt
Clc1ccc2c(NCc3ccccn3)ncnc2c1
  -7%, nt
Oc1ccc(/C=N/Nc2ncc(Cl)cc2Cl)cc1
  1%, ?
O=C(COC(=O)Cc1n[nH]c(=O)c2ccccc12)Nc1cccc(C(F)(F)F)c1
  -22%, -5%
COc1ccc(-c2oc3ccc(-c4ccc(OC)nc4)cc3c2-c2ccc(OC)cc2)cc1
  -12%, -1%
CCCc1nnc(NC(=O)Cc2coc3c(C)c(C)ccc23)s1
  ?, -10%
CSc1nc(-c2ccc(Cl)cc2)nn1C(=O)c1ccco1
  -12%, nt
CC(=O)N1CCC(N2CCCC(C(=O)c3cccc(Cl)c3)C2)CC1 (stereo not drawn)
  1%, i
Cc1cc(C)n(-c2ccc(C)c(Cl)c2)n1
  3%, -3%
Cn1c(=O)n(Cc2ccccc2Cl)c(=O)c2c1nc1n2CCN1c1ccccc1
  -15%, i
COC(=O)N(C)C[C@H]1OCc2cn(nn2)CCCC(=O)N([C@@H](C)CO)C[C@@H]1C
  -6%, i
CCCNCC(=O)Nc1sc2c(c1C(=O)Nc1c(C)n(C)n(-c3ccccc3)c1=O)CCCC2
  -12%, i
COc1cccc(CNC(=O)CCCn2ncn3c(cc4occc43)c2=O)c1
  -10%, -13%
COC(=O)c1ccccc1Oc1ccc(NC(=O)C(C)(C)CCl)cc1
  2%, -1%
NNC(=O)CN1C(c2ccccc2Br)=Nc2ccc(Br)cc2C1c1ccccc1 (stereo not drawn)
  -15%, -18%
Cc1ccc(S(=O)(=O)c2cn(CC(=O)Nc3ccccc3C)c3cc4c(cc3c2=O)OCO4)cc1
  3%, -4%
COC(=O)C1(C(=O)OC)C[C@H](/C=C/c2ccccc2)N(Cc2ccccc2OC)[C@@H]1c1cccs1
  -13%&17%, ?
COc1ccc2c(c1)OC/C(=C/c1cccs1)C2=O
  -7%, -10%
Cc1cccc(OCC(=O)N2CCN(Cc3ccncc3)CC2)c1
  -4%, -7%
CN(C)Cc1c(C(=O)N/N=C/C=C/c2ccccc2)nnn1-c1nonc1N
  1%, -17%
Cc1ccccc1-c1noc(-c2ccc(NCc3ccco3)c([N+](=O)[O-])c2)n1
  -1%, -5%
N#Cc1cc2cc3c(cc2nc1N1CCCCC1)OCCO3
  -18%, -26%
c1ccc(N2CCN(c3ccccc3)C2c2cccnc2)cc1
  -18%, nt
CCOc1ccc(C2c3c(oc4cc(C)c(C)cc4c3=O)C(=O)N2c2ccccn2)cc1 (stereo not drawn)
  -8%, -1%
COc1ccc(Nc2cc(C(=O)NCc3cccs3)c3ccccc3n2)cc1
  -2%, -7%
COC(=O)CCC(=O)N1CCOCCOCCN(C(=O)CCC(=O)OC)CCOCCOCC1
  -10%, nt
COc1ccc(S(=O)(=O)N2CCC3(CC2)CC(=O)c2ccccc2O3)cc1C
  -6%, i
CCC(C)(C)NC(=O)C(c1ccc(OC)cc1)N(C(=O)CCC(=O)Nc1cc(C)on1)c1cccc(F)c1 (stereo not drawn)
  -15%, -7%
CCNC(=O)N(C(=O)NCC)n1c(C)nnc1C
  -6%, -4%[1.46 µM]
COc1ccc(NC(=O)C2CCCN2S(=O)(=O)c2ccc3c(c2)CC(C)N3C(C)=O)cc1OC (stereo not drawn)
  2%, -19%
CCc1sc(C(=O)Nc2nc(C)cs2)cc1C
  4%, -12%
O=C(COC(=O)c1ccc(-c2nnc(-c3ccccc3)o2)cc1)c1ccccc1
  -6%, -12%
CCCCc1c(Cc2ccccc2)ncn1CCc1ccccc1OC
  -29%, -19%
Cn1cc(/C=C(\NC(=O)c2ccccc2)C(=O)N2CCOCC2)c2ccccc21
  -8%, ?
CCCC1OC23CCCCC2C(C#N)(C#N)C1(C#N)C(=N)O3 (stereo not drawn)
  21%, -4%
Cc1cc2nc(-c3cccc(Cl)c3)c(Cc3ccccc3)n2c(C)c1Br
  -3%, 4%
COc1cc(S(=O)(=O)N2CCOCC2)ccc1NC(=O)COC(=O)c1cc(OC)c(OC)c(OC)c1
  -10%, i
C#CC(C)(CC)NC(=O)Cn1nnc(-c2ccc(OCc3ccccc3F)cc2)n1 (stereo not drawn)
  11µM*, ?
Cc1nn(C)c(Cl)c1CN1CCCC(CCC(=O)NCc2ccccc2F)C1 (stereo not drawn)
  -1%, -13%
O=S(=O)(Nc1c(F)cccc1F)c1ccc(Cl)nc1
  0%, 0%
COC(=O)[C@]1(Cc2ccccc2)N[C@H](CN(C)C(=O)Nc2ccc(Cl)cc2)[C@@H]2C(=O)N(Cc3ccccc3)C(=O)[C@@H]21
  ?, -22%
CC(C)(C)C(=O)Nc1ccccc1C(=O)NCCCn1ccnc1
  -4%, -12%
Cc1ccc(S(=O)(=O)NNC(=O)c2sc(NS(=O)(=O)c3ccccc3)nc2C)cc1
  0%, i
Cc1cc(F)ccc1-c1cc(C(=O)NCC2CCCCC2)[nH]n1
  -9%, -25%
CCC(C)NC(=O)C1CCN(S(=O)(=O)c2ccc3[nH]c(=O)ccc3c2)CC1 (stereo not drawn)
  -6%, 3%
COc1cccc2sc(/N=C/N(C)C)nc12
  -10%, i
CN(C)S(=O)(=O)c1cccc(NC(=O)c2cc(=O)[nH]c3ccccc23)c1
  -4%, -5%
CC(=O)c1ccc(Nc2nc(C(N)Cc3ccc(Cl)cc3)cs2)cc1 (stereo not drawn)
  ?, ?
CC1CCCC(NC(=O)C2CCN(S(=O)(=O)N3CCC4(CC3)OCCO4)CC2)C1C (stereo not drawn)
  -5%, -14%
O=C1NC(Cc2ccccc2)c2nc3ccc(F)cc3c(=O)n2-c2ncccc21 (stereo not drawn)
  -19%, -10%

Compounds from the list above that have a tert-butyl group, in the order listed:
Each structure is followed by: VACV Venus inh, Vaccinia mCherry
Cc1ccc(-n2ncc(C(=O)NCCN3CCN(C)CC3)c2C2CCN(C(=O)OC(C)(C)C)CC2)cc1
  -13%, -17%
CC(C)(C)C(=O)Nc1ccccc1C(=O)NCCCn1ccnc1
  -4%, -12%

Continuation.
Each structure is followed by: VACV Venus inh, Vaccinia mCherry
CCOC(=O)C1CCN(C(=O)CSc2cc(=O)n(CC)c3ccccc23)CC1
  -18%, -4%
CCCCC(=O)Nc1c(C(=O)N2CCN(c3ccccc3)CC2)oc2ccccc12
  -4%, -7%
NC(CCC(=O)NCS(=O)(=O)O)C(=O)O (stereo not drawn)
  -6%, -8%
COC(=O)c1ccc(Nc2cc(C)nc(-c3ccccc3O)n2)cc1
  -14%, nt
Cc1cc(C)cc(N2CCn3c2nc2c3c(=O)n(CCc3ccccc3)c(=O)n2C)c1
  -3%, -7%
COc1cc(C2CC(=O)N(CC(=O)NCC3CCCO3)c3ccccc3S2)cc(OC)c1OC (stereo not drawn)
  -20%, i
O=C(CCC(=O)N1CCOc2ccccc21)Nc1ccccc1Cl
  -4%, i
O=C(O)CC(Cc1ccc(Cl)cc1)C(=O)NCc1ccccc1 (stereo not drawn)
  -14%, -13%
COc1ccc(C2=NCCn3c2c2ccc(C(F)(F)F)cc2[n+]3[O-])cc1
  -6%, -4%
O=S(=O)(NCc1c(Cl)cccc1Oc1ccccc1)c1ccccc1
  8%, ?
O=C(CC(c1ccccc1)c1ccccc1O)NCCc1ccccc1 (stereo not drawn)
  -16%, i
CCCC(C(=O)NC(C)(C)C)N(C(=O)c1snc(C(N)=O)c1N)c1ccc2c(c1)OCCO2 (stereo not drawn)
  -11%, -14%
COCCNC(=O)C1CCCN(S(=O)(=O)c2ccc3c(ccn3C)c2)C1 (stereo not drawn)
  2%, -3%
COc1ccc(C2=CC(=O)C[C@H](c3ccc4c(c3)OCO4)C2)cc1
  -19%, i
Cn1c(=O)n(C)c2cc(NC(=O)CSc3nc4ccccc4c(=O)[nH]3)ccc21
  5%, 1%
O=C(CNS(=O)(=O)c1ccccc1)N/N=C\c1ccc(Cl)cc1
  -9%, -8%
COc1ccc(-c2ccc3oc(-c4ccsc4)cc(=O)c3c2)cc1F
  4%, 31%[activator]
COc1ccc(S(=O)(=O)N2CCCCCC2)cc1C(=O)OCc1c(C)noc1C
  -17%, -1%
OCC[C@@H]1C[C@@H](O)[C@H](O)[C@]2(CCc3ccccc3O2)O1
  -6%, i
